UUG fidelity: alters start codon recognition fidelity in yeast; S. cerevisiae UUG-firefly luciferase reporter, luminescence/redox ratio; activity score, % at 18.7 µM; 350,000 tested, 0.13% active;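 active = replicate mean at a twofold rise or more, about +100% in these data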;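 also: firefly luciferase made from a UUG start codon reports start codon fidelity; reporter light over untreated wells divided by growth signal over untreated wells; some hits fall short of that in this replicate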
* = called active by the depositor; & = joins results of further samples.

no. | molecule | UUG fidelity
1 | CCCC(=O)Nc1ccc2c(c1)C(=O)N(C)[C@@H]1CC[C@@H](CC(=O)Nc3cn(C)nc3C)O[C@@H]1CO2 | -9
2 | CCCN1C[C@@H](C)[C@@H](OC)CN(C)C(=O)c2ccc(NC(=O)c3cccc(F)c3)cc2OC[C@@H]1C | 6
3 | O=C(Nc1cccc(Cl)c1)N1C[C@H]2[C@@H](c3ccccc31)[C@@H](CO)N2C(=O)C1CC1 | -2
4 | C[C@H]1CN([C@@H](C)CO)C(=O)c2cccc(NC(=O)NC3CCCCC3)c2O[C@H]1CN(C)C | -6
5 | CCC(=O)N1C[C@H](C)[C@@H](OC)CN(C)C(=O)c2cc(NC(=O)C3CCOCC3)ccc2OC[C@H]1C | -21
6 | C[C@H](CO)N1C[C@H](C)[C@H](CN(C)Cc2ccc(Oc3ccccc3)cc2)Oc2ccc(NS(C)(=O)=O)cc2CC1=O | 3
7 | O=C(Nc1nccs1)[C@H]1[C@H](CO)[C@H]2Cn3c(cccc3=O)[C@@H]1N2C(=O)C1CCC1 | 19
8 | C[C@H](CO)N1C[C@H](C)[C@H](CN(C)Cc2ccc(Cl)c(Cl)c2)Oc2ccc(NC(=O)CCCCCC(=O)Nc3ccccc3N)cc2C1=O | 1
9 | C[C@@H]1CN([C@@H](C)CO)C(=O)c2cc(NC(=O)Cc3cn(C)c4ccccc34)ccc2O[C@H]1CN(C)S(=O)(=O)c1cccs1 | -8
10 | CCC(=O)N1C[C@@H]2[C@H](c3ccccc31)[C@@H](CO)N2C(=O)CC1CC1 | -5
11 | O=C(C1CCCCC1)N1CC[C@H]2[C@H](CO)Nc3ccc(Br)cc3[C@H]21 | 0
12 | COc1ccc(CN(C)C[C@@H]2Oc3c(NS(=O)(=O)c4ccc(C)cc4)cccc3C(=O)N([C@@H](C)CO)C[C@@H]2C)cc1 | -7
13 | C[C@H]1CN([C@@H](C)CO)C(=O)c2cccc(NC(=O)NC3CCCCC3)c2O[C@H]1CN(C)S(=O)(=O)c1cn(C)cn1 | 6
14 | C[C@@H]1CN([C@@H](C)CO)C(=O)c2cc(NC(=O)Nc3cccc4ccccc34)ccc2O[C@@H]1CN(C)Cc1ccc(-c2ccccc2)cc1 | -1
15 | C[C@H](CO)N1C[C@H](C)[C@@H](CN(C)S(=O)(=O)c2cn(C)cn2)Oc2ccc(NS(=O)(=O)c3ccc(Cl)cc3)cc2C1=O | 2
16 | O=C(c1ccccc1F)N1C[C@H]2[C@@H](c3ccccc31)[C@@H](CO)N2C(=O)Nc1ccccc1 | -9
17 | CO[C@H]1CN(C)C(=O)c2ccc(NC(=O)Nc3ccc(Cl)cc3)cc2OC[C@@H](C)N(C(=O)Nc2c(C)noc2C)C[C@@H]1C | -1
18 | O=C(O)[C@H]1[C@H](CO)[C@H]2Cn3c(ccc(-c4ccccc4)c3=O)[C@H]2N1CCc1ccccc1 | 7
19 | COCC(=O)N(C)C[C@H]1[C@@H](c2ccc(-c3cccnc3)cc2)[C@H](CO)N1C(C)=O | 10
20 | CN1[C@@H]2c3ccc(-c4ccncc4)c(=O)n3C[C@@H]2[C@@H](CO)[C@@H]1C(=O)NCCc1ccccc1 | 5
21 | CC(=O)N(C[C@H]1N[C@H](CO)[C@H]1c1ccc(-c2cccnc2)cc1)C1CCCC1 | 6&-5
22 | CCN1[C@@H]2c3ccc(-c4ccccc4F)c(=O)n3C[C@@H]2[C@@H](CO)[C@@H]1C(=O)NC1CCC1 | 22
23 | CO[C@H]1CN(C)C(=O)c2ccc(NC(=O)C3CCC3)cc2OC[C@@H](C)N(Cc2ccc(F)cc2)C[C@@H]1C | 5
24 | COc1ccc(NC(=O)Nc2ccc3c(c2)CC(=O)N([C@@H](C)CO)C[C@H](C)[C@H](CN(C)CC2CC2)O3)cc1 | -6
25 | CCCNC(=O)Nc1ccc2c(c1)OC[C@H](C)N(Cc1ccncc1)C[C@@H](C)[C@@H](OC)CN(C)C2=O | -4
26 | COc1ccc(CN(C)C[C@H]2Oc3c(NC(=O)Nc4ccc(F)cc4)cccc3C(=O)N([C@@H](C)CO)C[C@@H]2C)cc1 | -6
27 | CCC(=O)N1[C@@H]2c3ccc(-c4ccccc4)c(=O)n3C[C@H]1[C@H](CO)[C@H]2C(=O)N1CCc2ccccc2C1 | 13
28 | Cc1noc(C)c1S(=O)(=O)Nc1ccc2c(c1)C(=O)N([C@@H](C)CO)C[C@@H](C)[C@@H](CN(C)S(=O)(=O)c1ccccc1)O2 | -2
29 | CC=Cc1ccc2n(c1=O)C[C@@H]1[C@@H](CO)[C@H](C(=O)N3CCc4ccccc4C3)[C@H]2N1CCC (mixture of isomers) | 11
30 | COCC(=O)N1C[C@@H](C)[C@@H](OC)CN(C)C(=O)c2cc(NC(=O)c3ccccc3)ccc2OC[C@@H]1C | 1
31 | CC1C=NC(S(=O)(=O)N2CC[C@H]3[C@@H](CO)N(C)c4ccc(-c5ccccc5)cc4[C@H]32)=N1 (stereo not given in full) | 4
32 | O=S(=O)(c1ccc(F)cc1)N1CCCCN2[C@@H](CO)[C@@H](c3ccc(-c4ccccc4F)cc3)[C@@H]2C1 | -4
33 | CCCN1C[C@@H](C)[C@H](OC)CN(C)C(=O)c2cc(NC(=O)c3cccc(F)c3)ccc2OC[C@@H]1C | 12
34 | CO[C@H]1CN(C)C(=O)c2cc(NC(=O)C3CCCC3)ccc2OC[C@H](C)N(C)C[C@@H]1C | 15
35 | CCC(=O)N1CC[C@@H]2[C@H]1c1cc(-c3ccccc3)ccc1N[C@@H]2CO | -20
36 | CCNC(=O)[C@@H]1[C@@H](CO)[C@@H]2Cn3c(ccc(-c4ccccc4)c3=O)[C@@H]2N1C(=O)C1CCC1 | 1
37 | C[C@@H]1CN([C@H](C)CO)C(=O)c2cc(NC(=O)Nc3cccc4ccccc34)ccc2O[C@@H]1CN(C)Cc1ccc(C(=O)O)cc1 | -3
38 | C[C@H](CO)N1C[C@H](C)[C@@H](CN(C)Cc2ccc(Cl)c(Cl)c2)Oc2ccc(NC(=O)Nc3ccc4c(c3)OCO4)cc2C1=O | -1
39 | O=C(c1ccncc1)N1C[C@@H]2[C@H](c3ccccc31)[C@H](CO)N2Cc1ccccc1F | 1
40 | Cn1cnc(S(=O)(=O)N2CC[C@@H]3[C@H]2c2cc(C#Cc4ccc(F)cc4)ccc2N[C@@H]3CO)c1 | -15
41 | COc1ccc(S(=O)(=O)Nc2ccc3c(c2)CC(=O)N([C@H](C)CO)C[C@@H](C)[C@H](CN(C)C)O3)cc1 | -29
42 | OC[C@H]1[C@H](c2ccc(C#CC3(O)CCCC3)cc2)[C@H]2CN(Cc3cccnc3)CCCCN21 | -6
43 | Cc1ccccc1-c1ccc([C@@H]2[C@@H](CO)N3CCCCN(S(C)(=O)=O)C[C@H]23)cc1 | -8
44 | CCNC(=O)C[C@@H]1CC[C@@H]2[C@H](COC[C@H](O)CN2C(=O)C2CCCC2)O1 | -4
45 | C[C@H](CO)N1C[C@H](C)[C@H](CN(C)C)Oc2ccc(NC(=O)Nc3ccc4c(c3)OCO4)cc2C1=O | -3

Look-ups from above:
CO[C@H]1CN(C)C(=O)c2cc(NC(=O)C3CCCC3)ccc2OC[C@H](C)N(C)C[C@@H]1C – UUG fidelity: 15
Cc1ccccc1-c1ccc([C@@H]2[C@@H](CO)N3CCCCN(S(C)(=O)=O)C[C@H]23)cc1 – UUG fidelity: -8
C[C@H](CO)N1C[C@H](C)[C@@H](CN(C)Cc2ccc(Cl)c(Cl)c2)Oc2ccc(NC(=O)Nc3ccc4c(c3)OCO4)cc2C1=O – UUG fidelity: -1
Cn1cnc(S(=O)(=O)N2CC[C@@H]3[C@H]2c2cc(C#Cc4ccc(F)cc4)ccc2N[C@@H]3CO)c1 – UUG fidelity: -15
CCNC(=O)[C@@H]1[C@@H](CO)[C@@H]2Cn3c(ccc(-c4ccccc4)c3=O)[C@@H]2N1C(=O)C1CCC1 – UUG fidelity: 1

The listing continues.
no. | molecule | UUG fidelity
46 | Cc1ccccc1S(=O)(=O)N1CC[C@@H]2[C@H](CO)Nc3ccc(-c4ccc(C#N)cc4)cc3[C@@H]21 | -38
47 | O=C(C[C@@H]1C[C@H]2c3cc(NC(=O)NC4CCCC4)ccc3O[C@H]2[C@@H](CO)O1)NCc1ccc(-c2ccccc2)cc1 | -14
48 | COCC(=O)Nc1ccc2c(c1)C(=O)N(C)C[C@H](OC)[C@H](C)CN(Cc1ccccc1F)[C@@H](C)CO2 | -1
49 | C[C@@H]1CN([C@@H](C)CO)C(=O)CCCn2cc(nn2)CO[C@H]1CN(C)CC1CC1 | -1
50 | C[C@H]1CN([C@@H](C)CO)C(=O)CCCn2nncc2CO[C@@H]1CN(C)C(=O)c1cc(-c2ccccc2)on1 | 3
51 | Cc1ccccc1S(=O)(=O)N1CC[C@@H]2[C@H]1c1cc(-c3ccccc3)ccc1N(C)[C@H]2CO | -9
52 | C[C@H](CO)N1C[C@H](C)[C@H](CN(C)C(=O)Nc2ccccc2)Oc2c(cccc2N(C)C)C1=O | -9
53 | O=C(C[C@@H]1CC[C@H]2[C@@H](COC[C@H](O)CN2C(=O)Nc2ccc(Cl)cc2)O1)N1CCCCC1 | 4
54 | CC(C)NC(=O)N(C)C[C@@H]1Oc2ccc(NC(=O)Nc3ccc(F)cc3)cc2C(=O)N([C@@H](C)CO)C[C@@H]1C | 9
55 | O=C(C[C@H]1CC[C@@H]2[C@H](COC[C@@H](O)CN2S(=O)(=O)c2cccc(Cl)c2)O1)Nc1ccccc1 | 6
56 | Cc1ccccc1-c1ccc([C@H]2[C@@H](CO)N3CCCCN(Cc4cccnc4)C[C@H]23)cc1 | -8
57 | CN(C)C(=O)c1ccc(-c2ccc3c(c2)[C@@H]2[C@@H](CCN2S(=O)(=O)c2ccccc2)[C@H](CO)N3)cc1 | -3
58 | COc1ccc(NC(=O)Nc2ccc3c(c2)[C@H]2C[C@H](CC(=O)N4CCCCC4)O[C@H](CO)[C@H]2O3)cc1 | 0
59 | COc1ccc(-c2ccc3c(c2)[C@@H]2[C@@H](CCN2C(=O)c2ccc4c(c2)OCO4)[C@@H](CO)N3)cc1 | 1
60 | C[C@H]1CN([C@@H](C)CO)C(=O)Cc2cc(NC(=O)Nc3ccccc3)ccc2O[C@@H]1CN(C)CC1CCCCC1 | -10
61 | Cc1ccc(S(=O)(=O)N2C[C@H](O)COC[C@@H]3O[C@@H](CC(=O)N[C@@H]4CCN(Cc5ccccc5)C4)CC[C@H]32)cc1 | 8
62 | O=C(Nc1ccccc1)N1C[C@H]2[C@@H](c3ccccc31)[C@@H](CO)N2C(=O)c1ccccn1 | 7
63 | O=C(C[C@@H]1C[C@@H]2c3cc(NS(=O)(=O)c4ccc(F)cc4)ccc3O[C@@H]2[C@H](CO)O1)NCc1ccncc1 | -29
64 | OC[C@H]1[C@@H](c2ccc(C3=CCCC3)cc2)[C@@H]2CN(CCC(F)(F)F)CCCCN12 | 5
65 | C[C@@H]1CN([C@@H](C)CO)C(=O)c2cc(NS(=O)(=O)c3cccs3)ccc2O[C@@H]1CN(C)C(=O)NC1CCCCC1 | 10
66 | COc1cccc(C(=O)Nc2ccc3c(c2)C(=O)N(C)[C@@H]2CC[C@H](CC(=O)N[C@H](C)c4ccccc4)O[C@@H]2CO3)c1 | -7
67 | CC(C)NC(=O)N1[C@@H]2CN(C(=O)C3CCCCC3)c3ccccc3[C@@H]2[C@@H]1CO | 2
68 | Cc1ccccc1S(=O)(=O)N1CC[C@@H]2[C@H]1c1cc(-c3cccc(F)c3)ccc1N(C)[C@H]2CO | -10
69 | C[C@H]1CN([C@@H](C)CO)C(=O)c2cccc(NC(=O)NC3CCCCC3)c2O[C@@H]1CN(C)S(=O)(=O)c1ccc(Cl)cc1 | -6
70 | CO[C@@H]1CN(C)C(=O)c2cc(NC(=O)C3CC3)ccc2OC[C@@H](C)N(Cc2cccnc2)C[C@@H]1C | -8
71 | C[C@H]1CN([C@@H](C)CO)C(=O)c2cccc(NS(C)(=O)=O)c2O[C@H]1CN(C)C(=O)Nc1ccc(F)cc1 | 4
72 | COc1ccc(NC(=O)N2CCCCN3[C@H](CO)[C@H](c4ccc(C5=CCCC5)cc4)[C@H]3C2)cc1 | 10
73 | CN1C(=O)c2cc(NC(=O)Cc3cccs3)ccc2OC[C@H]2O[C@@H](CC(=O)NCC3CCCCC3)CC[C@@H]21 | 7
74 | CO[C@H]1CN(C)C(=O)c2ccc(NC(=O)C3CC3)cc2OC[C@@H](C)N(C(=O)CN2CCOCC2)C[C@H]1C | -3
75 | C[C@H]1CN([C@@H](C)CO)C(=O)CCCn2nncc2CO[C@H]1CN(C)C(=O)Nc1ccc(N2CCN(C)CC2)cc1 | -14

Quoted at random: two entries already listed.
no. | molecule | UUG fidelity
48 | COCC(=O)Nc1ccc2c(c1)C(=O)N(C)C[C@H](OC)[C@H](C)CN(Cc1ccccc1F)[C@@H](C)CO2 | -1
17 | CO[C@H]1CN(C)C(=O)c2ccc(NC(=O)Nc3ccc(Cl)cc3)cc2OC[C@@H](C)N(C(=O)Nc2c(C)noc2C)C[C@@H]1C | -1

Next section.
no. | molecule | UUG fidelity
76 | COc1cccc(-c2ccc3c(c2)[C@@H]2[C@@H](CCN2C(=O)c2ccc(F)cc2)[C@H](CO)N3)c1 | -7
77 | O=C(c1ccccc1F)N1C[C@H]2[C@@H](c3ccccc31)[C@H](CO)N2C(=O)c1cccnc1 | 9
78 | COc1ccc(S(=O)(=O)N2CCCCN3[C@H](CO)[C@H](c4ccc(C5=CCCC5)cc4)[C@H]3C2)cc1 | 4
79 | CC(C)NC(=O)Nc1ccc2c(c1)C(=O)N([C@@H](C)CO)C[C@@H](C)[C@@H](CN(C)Cc1ccncc1)O2 | -6
80 | COCC(=O)Nc1ccc2c(c1)C(=O)N(C)[C@H]1CC[C@@H](CC(=O)NCC3CCCCC3)O[C@@H]1CO2 | -7
81 | CC(=O)N1[C@H](CN(C)C(=O)c2ccccc2F)[C@@H](c2ccccc2)[C@@H]1CO | -8
82 | CO[C@@H]1CN(C)C(=O)c2cc(NC(=O)c3ccccc3F)ccc2OC[C@@H](C)N(CC2CC2)C[C@H]1C | -9
83 | CO[C@H]1CN(C)C(=O)c2cc(NC(C)=O)ccc2OC[C@H](C)N(C(=O)C2CCCCC2)C[C@@H]1C | 2
84 | C[C@@H](NC(=O)C[C@@H]1CC[C@H]2[C@@H](COc3ccc(NC(=O)C4CCOCC4)cc3C(=O)N2C)O1)c1ccccc1 | -18

Screening data: PubChem BioAssay, Broad Institute

An excerpt; rates above refer to the full screens.
